Source: PubChem BioAssay (several laboratories)
CBX7 AlphaScr – CBX7 inhibition, primary AlphaScreen | AlphaScreen His6-CBX7 / biotin-H3K27me3 peptide binding; hits give low values | hit rate 1.1% among 66,000 | AID 1224903 | normalised signal (fraction of DMSO) (test concentration not listed) | O95931; in the data active means normalised signal below about 0.5;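 further: 100 nL library stock added to about 20 µL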
Target sequence (O95931 whole entry, looked up): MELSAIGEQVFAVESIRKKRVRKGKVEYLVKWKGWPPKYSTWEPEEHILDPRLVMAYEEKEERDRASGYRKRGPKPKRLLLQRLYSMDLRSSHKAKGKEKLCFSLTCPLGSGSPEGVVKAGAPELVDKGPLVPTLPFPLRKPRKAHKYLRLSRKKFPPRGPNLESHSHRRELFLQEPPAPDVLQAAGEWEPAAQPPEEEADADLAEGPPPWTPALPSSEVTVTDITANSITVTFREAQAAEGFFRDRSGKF
CBX7 AlphaScr z-score – further read-out of CBX7 AlphaScr, marked with its call; z-score; measured here: z-score of CBX7 signal; some inactives read as strong as hits; reference of the scale not given here;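 same signal on another scale; lower means less binding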
* = called active by the depositor. This is a subset; rates above refer to the full screens.

Results follow in this order: CBX7 AlphaScr	CBX7 AlphaScr z-score
O=C(c1ccc2c(c1)N(Cc1c(F)cccc1Cl)C(=O)CS2)N1CCCC1
    1	0.55
COc1ccc(-c2noc(-c3ccccc3OC)n2)cc1
    1.1	2.2
COc1ccc(-n2nc(C(=O)N3CC(C)CC(C)C3)c3ccccc3c2=O)cc1 (configuration not stated)
    0.95	-0.31
CC(C)C(C(=O)Nc1ccc2c(c1)OCO2)N1C(=O)c2ccccc2C1=O (configuration not stated)
    0.76	-6
CCc1ccc(NS(=O)(=O)c2ccc3[nH]cc(C(=O)NCCc4ccc(C)cc4)c(=O)c3c2)cc1
    0.94	-1.5
CCCCOc1ccccc1NC(=O)CC1(CC(=O)O)CCCCC1
    1	0.04
O=C(Nc1cccnc1)C1(S(=O)(=O)c2ccc(Cl)cc2)CC1
    1	0.59
COc1ccc(-c2cc3nc(C)c(CCC(=O)Nc4ccc(C)c(C)c4)c(C)n3n2)c(OC)c1
    1.1	0.7
COc1ccc(-c2nc3ccccc3o2)cc1NC(=O)c1ccc(-c2cccc(Cl)c2C)o1
    0.78	-0.76
O=C(c1cc(-c2ccc(Br)cc2)on1)N1CCN(Cc2ccccc2)CC1
    1	0.014
COc1ccc2c(c1)CCc1c(C(=O)Nc3ccc(F)c(Cl)c3)noc1-2
    1.1	1.6
CC(=O)N1CCc2cc(S(=O)(=O)NCCC(=O)N3CC=C(c4ccccc4)CC3)ccc21
    0.97	-1.2
COc1ccc(-c2cn(-c3ccc(F)cc3)c(SCC(=O)Nc3cccc(F)c3)n2)cc1OC
    0.39*	-4.7*
O=C(c1ccc2nc(N3CCOCC3)sc2c1)N1CCN(Cc2ccc3c(c2)OCO3)CC1
    1	0.059
CC1CCC(NC(=O)C2c3ccccc3C(=O)N2Cc2ccc(F)cc2Cl)CC1 (configuration not stated)
    1.1	1.5
COc1cc(OC)cc(-c2nnc(SCC(=O)N3CCCC(C)C3)o2)c1 (configuration not stated)
    1.1	2.5
Cc1cc(N2CCN(c3ccccc3)CC2)n2nc(C)nc2n1
    1	0.81
COc1ccc(C2CC(c3cccc(Br)c3)Nc3ncnn32)cc1OC (configuration not stated)
    1.1	2.3
CCOc1ccc(-c2nnc(Nc3ccc(OC)cc3)c3ccccc23)cc1
    0.86	-0.65
COc1cccc(-c2cc(C(=O)Nc3cc(Cl)ccc3Cl)no2)c1
    1	0.11

Further results follow:
Results follow in this order: CBX7 AlphaScr	CBX7 AlphaScr z-score
CC1CCC(NC(=O)CN2C(=O)COc3ccc(S(=O)(=O)N4CC(C)CC(C)C4)cc32)CC1 (configuration not stated)
    1.1	2
COc1cccc(-c2nn(C)c3sc(C(=O)Nc4cccc(C(F)(F)F)c4)cc23)c1
    0.99	-0.18
COc1cc(C2CC(=O)Nc3c2ccc2ccccc32)cc(OC)c1OC (configuration not stated)
    0.86	-3.2
CC1CCN(S(=O)(=O)c2ccc3c(c2)N(CC(=O)N2CC(C)CC(C)C2)C(=O)CO3)CC1 (configuration not stated)
    1	0.61
Cc1cccc(N2CCN(C(=O)c3cnn4c(C)c(Cc5cccc(Cl)c5)c(C)nc34)CC2C)c1 (configuration not stated)
    0.78	-8.4
O=C(CN1CCN(Cc2ccccc2)C1=O)NCc1ccccc1Cl
    0.8	-2.6
CCC(=O)NCc1cc(-c2nn(C)c(=O)c3ccccc23)ccc1C
    1	0.41
O=C(Nc1nnc(CCS(=O)(=O)c2ccc(Cl)cc2)s1)c1ccc(Br)cc1
    1.1	0.48
CC(C)Oc1cccc(C(=O)Nc2cc(-c3nc4ncccc4o3)ccc2Cl)c1
    1.2	1.2
CC(C)(C)OC(=O)N1CCN(c2nc(-c3ccccc3Cl)c3cc(Br)ccc3n2)CC1
    1.5	4.5
CCC(C)NC(=O)c1ccc2c(c1)N(Cc1ccccc1Cl)C(=O)c1ccccc1S2 (configuration not stated)
    1.1	0.91
CCn1c(C(=O)N2CCCC(C(=O)N3CCN(c4cc(C)ccc4C)CC3)C2)cc2sccc21 (configuration not stated)
    0.56	-1.9
Cc1oc(-c2ccccc2F)nc1CN1CCC(C(=O)NCCN(C)C)CC1
    0.96	-0.99
Cc1ccc(-c2cn(-c3ccc(F)cc3)c(S(=O)(=O)CC(=O)Nc3cccc(C)c3)n2)cc1
    0.94	-0.54
Cc1ccc(Nc2nc3ccccc3nc2NS(=O)(=O)c2ccc(Cl)cc2)cc1C
    0.98	-0.65
COc1ccc(Cn2c(=O)[nH]c3cc(C(=O)NCCc4c[nH]c5ccccc45)ccc3c2=O)cc1
    0.94	-1.4
COc1cc2ccccc2cc1C(=O)Nc1nccs1
    1.1	2.3
COc1cccc(-c2nn(C)c3sc(C(=O)NC4CCCC(C)C4C)cc23)c1 (configuration not stated)
    0.79	-2.7
COc1ccc(NC(=O)Cc2c(Sc3ccccc3)c3ccccc3n2C)cc1
    0.96	-0.55
O=C(CCc1[nH]c2ccccc2c1Sc1ccccc1)N(CCO)CCO
    0.82	-2.1

Five entries picked at random from the list so far, as already listed:
Results follow in this order: CBX7 AlphaScr	CBX7 AlphaScr z-score
O=C(CN1CCN(Cc2ccccc2)C1=O)NCc1ccccc1Cl
    0.8	-2.6
O=C(Nc1nnc(CCS(=O)(=O)c2ccc(Cl)cc2)s1)c1ccc(Br)cc1
    1.1	0.48
COc1ccc(Cn2c(=O)[nH]c3cc(C(=O)NCCc4c[nH]c5ccccc45)ccc3c2=O)cc1
    0.94	-1.4
CCC(C)NC(=O)c1ccc2c(c1)N(Cc1ccccc1Cl)C(=O)c1ccccc1S2 (configuration not stated)
    1.1	0.91
COc1cc2ccccc2cc1C(=O)Nc1nccs1
    1.1	2.3

Later entries
Results follow in this order: CBX7 AlphaScr	CBX7 AlphaScr z-score
COc1ccc(C(=O)Nc2ccc(-c3nc4cc(C)cc(C)c4o3)cc2)cc1OC
    1.1	1.9
Cc1nc2c(C(=O)NCC3CCCO3)cnn2c(C)c1Cc1ccccc1 (configuration not stated)
    0.97	-1
Cc1cccc(C(=O)NCCc2cc3cc(C)c(C)cc3[nH]c2=O)c1
    1	0.31
CCC1CCCCN1CCCNC(=O)Cn1ncc2c1-c1ccccc1OC2 (configuration not stated)
    1.1	3.1
COc1ccc(-c2noc(CCC(=O)Nc3ccc(OC)cc3OC)n2)cc1
    1.1	1.5
COc1ccc(N2CC(C(=O)OCC(=O)c3ccc(-c4ccccc4)cc3)CC2=O)cc1 (configuration not stated)
    1.1	1.9
CCOc1ccccc1NC(=O)CSc1nccn1-c1cccc(Cl)c1
    0.29*	-2.5*
CCOC(=O)N1CCC(Nc2c(N3CCN(c4ccc(OC)cc4)CC3)c(=O)c2=O)CC1
    1.1	1.7
O=C(Nc1nc2ccccc2s1)c1cc(-c2ccccc2)nc2ccccc12
    1	0.045
CCCCNC(=O)c1cccc2c1C(=O)N(c1ccc(OC)cc1)C2
    1.1	1.1
COCCNc1ncnc2c1c(-c1ccccc1)cn2-c1cccc(C(F)(F)F)c1
    1	-0.11
COC(=O)c1cc2ccsc2n1Cc1nc(-c2ccc(Cl)cc2)oc1C
    0.98	-0.44
Cc1cccc(N(C)S(=O)(=O)c2cccc3cccnc23)c1
    0.97	-0.71
Cc1ccc(S(=O)(=O)Nc2nc3ccc(C)cc3nc2Nc2cccc(C)c2C)cc1
    1	0.27
Cc1ccccc1OCC(=O)Nc1ncc(Cc2cccc(Cl)c2)s1
    1.1	0.91
Cc1ccc(NC(=O)C2CCN(S(=O)(=O)c3cnc[nH]3)CC2)c(C)c1
    1.1	0.71
CC(C)CCNC(=O)CN1C(=O)COc2ccc(S(=O)(=O)N3CCCCCC3)cc21
    1	0.94
O=C(Cn1ccc2ccccc2c1=O)NCc1ccc(F)cc1
    1.2	1.6
Cc1ccc(-n2c(Cc3cccn3C)nnc2SCC(=O)Nc2ccc(C)c(Cl)c2)cc1
    0.93	-1.8
N=c1n(Cc2ccccc2)c2ccccc2n1CC(O)c1ccc(Br)cc1 (configuration not stated)
    0.96	-0.19

Molecules listed so far with bromine, in the order listed:
Results follow in this order: CBX7 AlphaScr	CBX7 AlphaScr z-score
O=C(c1cc(-c2ccc(Br)cc2)on1)N1CCN(Cc2ccccc2)CC1
    1	0.014
COc1ccc(C2CC(c3cccc(Br)c3)Nc3ncnn32)cc1OC (configuration not stated)
    1.1	2.3
O=C(Nc1nnc(CCS(=O)(=O)c2ccc(Cl)cc2)s1)c1ccc(Br)cc1
    1.1	0.48
CC(C)(C)OC(=O)N1CCN(c2nc(-c3ccccc3Cl)c3cc(Br)ccc3n2)CC1
    1.5	4.5
N=c1n(Cc2ccccc2)c2ccccc2n1CC(O)c1ccc(Br)cc1 (configuration not stated)
    0.96	-0.19

New compounds follow.
Results follow in this order: CBX7 AlphaScr	CBX7 AlphaScr z-score
O=C(NCc1ccc(Cl)cc1)c1cc(-c2ccc(O)cc2)on1
    1	0.75
COc1ccc(-n2nnc3c(=O)n(CC(=O)Nc4ccc(OC)c(OC)c4)cnc32)cc1
    1	0.86
O=C1CCc2cc(S(=O)(=O)NC(Cc3ccccc3)C(=O)NC3CCCC3)ccc2N1 (configuration not stated)
    0.99	-0.22
COc1ccc(-c2cc(-c3ccccc3)cc(-c3ccccc3O)n2)c(OC)c1
    0.81	-5.6
Cc1nc(N2CCOCC2)c2c(C)c(C(=O)N3CCC(C)CC3)sc2n1
    1	0.067
COCCN1Cc2cccc(C(=O)Nc3ccc(C)cc3)c2C1=O
    1.1	0.062
COc1cccc(-c2cc(C(F)(F)F)n3nc(C(=O)O)cc3n2)c1
    1.2	1.5
COc1ccc(CNC(=O)C(C)N2C(=O)CC(C)(C)Sc3ccccc32)cc1 (configuration not stated)
    1.1	2
Cc1cccc(NC(=O)C2(S(=O)(=O)c3ccc(Cl)cc3)CC2)n1
    1	0.32
Cc1cccc(CSc2nc3ccncc3n2Cc2cc(=O)n3ccccc3n2)c1
    0.92	-1.2
CCOC(=O)c1cc(-c2ccccc2)n(-c2cccc(C(=O)NC(C)c3ccccc3)c2)c1C (configuration not stated)
    1	0.27
O=C(NC1CCCCC1)C(c1ccccc1)N1CCC(Cc2ccccc2)CC1 (configuration not stated)
    0.73	-6.8
COCCCNC(=O)CS(=O)(=O)Cc1nc(-c2ccc(OC)cc2)oc1C
    1.1	2.8
CCN(CC)S(=O)(=O)c1ccc2[nH]cc(C(=O)NCc3ccc4c(c3)OCO4)c(=O)c2c1
    0.99	-0.27
CCN(CC)CC#CC(O)(c1ccccc1)C1CCCCC1 (configuration not stated)
    1	0.046
Oc1ccc(-c2[nH]c(-c3cccc(Cl)c3)nc2-c2ccccc2)cc1
    0.41*	-0.58*
COc1ccc2nc(C)c(C(N)=O)cc2c1
    1	0.49
Cc1cc(C)c(N2CC(c3nc4ccccc4[nH]3)CC2=O)c(C)c1 (configuration not stated)
    1	0.22
O=C(O)c1[nH]c2ccc(Cl)cc2c1CC(=O)N1CCN(c2cccc(C(F)(F)F)c2)CC1
    1	1.2
Nc1nonc1-c1noc(COc2cccc(Br)c2)n1
    1.1	2.4

Remaining list, next part.
Results follow in this order: CBX7 AlphaScr	CBX7 AlphaScr z-score
O=C(NCC1CCCO1)c1ccc2c(c1)N(Cc1ccc(F)cc1)C(=O)CS2 (configuration not stated)
    0.94	-0.62
CCOc1ccc(-c2nc(Nc3ccccc3C)sc2CC(=O)O)cc1
    1	0.2
CCCS(=O)(=O)N1CCCC(C(=O)NCCc2ccc(C)cc2)C1 (configuration not stated)
    1	0.91
COc1ccccc1-n1c(C)nc2cc(C(=O)NCC(OC)OC)ccc21
    0.99	-0.3
CCOc1cc2c(cc1OCC)C1C(C(=O)NC(C)CC)c3ccccc3C(=O)N1CC2 (configuration not stated)
    1.1	0.49
FC(F)(F)c1ccc2nnc(-c3c[nH]c4ccc(Br)cc34)n2c1
    0.83	-1.7
Cc1ccc(Cl)cc1NS(=O)(=O)c1ccc2c(c1)CCN2C(=O)C1CC1
    1.2	0.91
Cc1ccc(Cl)cc1N1CCN(CCCNC(=O)C(C)n2ncc3ccccc32)CC1 (configuration not stated)
    0.69	-4.8
Cc1nc2c(C(=O)NC(C)CCc3ccccc3)cnn2c(C)c1Cc1ccccc1 (configuration not stated)
    0.74	-2.9
Cc1onc(-c2ccccc2Cl)c1C(=O)N1CCCc2ccccc21
    0.85	-0.67
N#Cc1ccccc1NC(=O)CSc1nc2ccccc2o1
    0.99	-0.088
Cc1cccc(-n2ccnc2SCC(=O)Nc2nccs2)c1
    1	0.027
Cc1ccc(-c2cc(C(F)(F)F)n3ncc(C(=O)Nc4cccc(C(F)(F)F)c4)c3n2)cc1
    1.1	1.6
COc1ccc(-c2noc(CCC(=O)NC3CCN(Cc4ccccc4)CC3)n2)cc1
    0.86	-2
COc1ccc(-c2nnc(Nc3cccc(O)c3)c3ccccc23)cc1
    0.43*	-11*
Cc1cc(N2CCC(C(=O)NCCN(C)C)CC2)n2nc(C)c(-c3ccc(Cl)cc3)c2n1
    1.1	6.9
CCCS(=O)(=O)N1CCCC(C(=O)NCc2ccc(C)cc2)C1 (configuration not stated)
    1.1	1.6
Cc1nn(Cc2ccc(F)cc2)c(C)c1NC(=O)c1cc(-c2ccc(Br)cc2)on1
    1.4	2.3
COCCCNc1ncnc2ccc(C)cc12
    1.2	2.6
Cc1nn(Cc2ccc(F)cc2)c(C)c1NC(=O)c1c(-c2ccccc2)noc1C
    1.1	1.4

The list goes on.
Results follow in this order: CBX7 AlphaScr	CBX7 AlphaScr z-score
O=C(CCn1nc(-c2ccccc2)ccc1=O)N1CCC(Cc2ccccc2)CC1
    0.92	-2.3
COc1cccc(-n2nc(C(=O)Nc3ccccc3F)c3ccccc3c2=O)c1
    1	-0.061
CCOCCCNC(=O)c1cc(Nc2ccc(OC)cc2OC)nc2ccccc12
    0.77	-3.4
COc1cc(OC)c(OC)cc1CN1CCN(Cc2cccc(C)c2)CC1
    0.93	-1.2
CC(C)(C)c1nc(S(=O)(=O)c2ccc(Cl)cc2)c(NCc2ccccc2)o1
    1.1	1.6
CCOc1ccccc1NC(=O)C(CCS(C)(=O)=O)NC(C)=O (configuration not stated)
    1.3	1.8
Cc1cccc(-c2nnc(Cc3ccc(Cl)cc3)o2)c1
    1	0.94
